Compound activity: PubChem BioAssay, SRMLSC
H5N1 antiviral – MDCK cell protection from H5N1 avian flu. cytopathic effect, luminescence, 72 h; hits give high values; no value below 0 was filed and about half of the inactive calls have no number; reference of the scale not given here. AID 740. 0.07% of 96,000 active. inhibition, % at 50 µM; in the data active = inhibition above about 25%
* hit, by the source's call; i = inactive.

SMILES	H5N1 antiviral
CC(C)C1CC(O)(C2(O)CCCCC2)ON1 (configuration not stated)	i
COc1ccc(C2C(C(C)=O)=C(O)C(=O)N2CCO)c(OC)c1 (configuration not stated)	0.5
COc1cc(CNC2CCCCCC2)cc(OC)c1OC	0.3
CN(C)CCCNS(=O)(=O)c1cc(Cl)ccc1Cl	i
Cc1oc(-c2ccc(Cl)cc2)nc1CN1CCC(C(=O)NCCCN2CCCC2=O)CC1	0.2
O=C(NC1CCN(Cc2ccccc2)CC1)c1ccccc1F	1.2
O=C(Cn1nc(-c2ccccc2)nc1-c1ccccc1)N1CCOCC1	0.3
CN(C)S(=O)(=O)N(CCN1CCOCC1)Cc1ccccc1F	i
COc1ccccc1N1C(=O)C2C3C=CC(C3)C2C1=O (configuration not stated)	0.5
C/C(N)=C(/C#N)C(=O)COc1ncnc2ccc(Br)cc12	0.3
CSc1nc(NCC(C)C)nc(N2CCOCC2)n1	i
CC(C)C(NC(=O)C1CCCCC1)C(=O)NCc1ccccn1 (configuration not stated)	i
Cc1ccccc1-c1cc(C(=O)n2cccn2)c2cc(Cl)ccc2n1	i
COc1ccc2[nH]c(=O)c(C(c3nnnn3CC3CCCO3)N3CCc4ccccc4C3)cc2c1 (configuration not stated)	i
COc1ccccc1C1C2=C(N=C3SCC(=O)N31)c1ccccc1CC2 (configuration not stated)	i
O=C1CC(c2ccsc2)c2cc3c(cc2N1)OCCO3 (configuration not stated)	1.0
CC1=CC(=O)C(C(C)C)=C/C1=N/OC(=O)c1cccc([N+](=O)[O-])c1	i
COc1cccc(OCCOCCNCCO)c1	i
CCC(C)NC(=O)CSc1nnc(-c2cc(-c3ccc(C)cc3)nc3ccccc23)n1N (configuration not stated)	0.2
CCc1cc2cc(C)ccc2nc1SCC(=O)N1CCN(C(=O)c2ccco2)CC1	i
CC1(C)Cc2c(sc3nc4n(c(=O)c23)CCC4)CO1	1.0
Cc1ccc(N2C(=O)[C@@H]3[C@H](C2=O)C2CCCN2[C@@H]3C(=O)c2ccccc2)cc1 (some centres not stated)	1.0
COc1cc(NC(=O)c2c3c(nc4ccccc24)CCC3)cc(OC)c1	0.5
CN=CC1=C(O)CC(C)(C)CC1=O	i
O=C(Oc1ccccc1Cl)c1ccccc1P(=O)(O)O	i
Cc1ccc2cc(C#N)c(SCC(=O)NCC3CCCO3)nc2c1 (configuration not stated)	1.9
Cc1cnc(C(=O)OCC(=O)Nc2cc(Cl)cc(Cl)c2)cn1	i
CCN(CC)CCCNC(=O)c1nn(-c2ccc(OC)cc2OC)c(=O)c2ccccc12	i
CC(C)(C)n1ncc2c(=O)n(CC(=O)NCCc3ccccc3)cnc21	0.3
CCC1CCCCN1C(=O)Cn1c(=O)n(CCC(=O)NCc2ccco2)c(=O)c2sccc21 (configuration not stated)	0.2
COc1ccccc1OCc1ccc(C(=O)NN)cc1	1.2
Cc1ccccc1OCC(=O)NC(=S)Nc1ccc(N2CCOCC2)c(Cl)c1	i
CCN1CCN(S(=O)(=O)c2cc(OCC(=O)NC3CCCCC3)c(C)cc2Cl)CC1	0.4
CCc1cccc(C)c1NC(=O)CSc1nnc(-c2ccco2)n1N	i
O=C(CSc1nccc(=O)[nH]1)Nc1ccc(F)c(Cl)c1	1.1
Cc1cccc(NC(=O)C2CCN(S(=O)(=O)c3c(C)nn(C)c3C)CC2)n1	1.1
COc1ccc(N2C(=O)CSC23CCCCC3)cc1	0.2
Cc1cc(NC(=O)CSc2n[nH]c(CC(C)C)n2)no1	0.2
CC(=O)c1sc2nc(-c3cccs3)cc(C(F)(F)F)c2c1N	i
O=C1c2ccccc2C(O)N1Cc1ccco1 (configuration not stated)	1.5
O=C(CSc1nnnn1-c1ccc(Cl)cc1)N1CCc2ccccc2C1	1.4
Cc1ccc(C(C2=C(O)CC(C)(C)CC2=O)C2C(=O)CC(C)(C)CC2=O)o1 (configuration not stated)	i
O=C(Nc1nc2c(s1)CN(Cc1ccccc1)CC2)c1cccc(S(=O)(=O)N2CCc3ccccc32)c1	i
O=P(OC1CCCCC1)(OC1CCCCC1)C(O)c1ccc(Cl)cc1Cl (configuration not stated)	i
CS(=O)(=O)N(CC(=O)N1CCN(c2cccc(Cl)c2)CC1)c1cccc(F)c1	i
COC(=O)c1ccccc1N(C)S(C)(=O)=O	i
Cc1ccc(NC(=O)CC2S/C(=N/c3nccs3)N(C)C2=O)c(C)c1 (configuration not stated)	0.2
CC(C)Cn1c(NCCO)nc2ccccc21	i
CC(C)Cc1nc2oc3c(N4CCN(CCO)CC4)ncnc3c2c2c1CCCC2	i
CCOC(=O)c1c(C2CC2)csc1NC(C)=O	0.2
COc1ccc(NC(=O)CN(c2cc(C)cc(C)c2)S(=O)(=O)c2c(C)noc2C)cc1	0.7
N=c1n(CCN2CCOCC2)c2ccccc2n1Cc1ccccc1Br	i
CC(=O)c1cc2c(cc1N)OCO2	i
O=C(CN1C(=O)NC2(CCCCC2)C1=O)Nc1ccccc1Cl	2.2
Cc1cc(N2C3CCC2CC(O)(c2ccc(F)cc2)C3)nc(-c2ccccc2)n1 (configuration not stated)	i
Cc1cc(C(=O)OCC(=O)NC2CCCCC2)c(C)o1	0.4
Cc1cccc(OCCCN2CCCCCC2)c1	1.2
CCN(CC)C(=O)/C(=C\c1ccc2c(c1)OCO2)NC(=O)c1ccc(Br)cc1	0.1
COCc1cc(C)nc(N)c1C#N	i
COCCCNC(=O)CN(c1cc(OC)ccc1OC)S(=O)(=O)c1ccccc1	2.5

(next part)
SMILES	H5N1 antiviral
CCOC(=O)C1C2C=CC3(CN(CCc4ccccc4)C(=O)C13)O2 (configuration not stated)	0.6
Cc1ccc2nc(-c3cccc(NC(=O)c4ccco4)c3)[nH]c2c1	i
O=C1c2ccccc2C(=O)N1CCCSc1nc2ccccc2o1	i
COc1cccc2c(=O)n(CC(=O)NC3CCCC3)ccc12	i
O=C(NCC1CCCO1)c1cc(-c2ccco2)nc2ccccc12 (configuration not stated)	0.7
COc1cc(C2C(C(=O)c3ccco3)=C(O)C(=O)N2CCc2ccccc2)ccc1O (configuration not stated)	i
CS(=O)(=O)c1cnc(-c2ccccc2)nc1Oc1ccc(F)cc1	1.0
COc1cccc(/C=N/NC(=O)c2ccccc2N(Cc2ccccc2)S(=O)(=O)c2ccccc2)c1OC	i
CCC(N1CCOC1=O)S(=O)(=O)c1ccc(C)cc1 (configuration not stated)	3.0
COc1ccc(Oc2ncc(CN3CCN(c4ccccc4)CC3)s2)cc1	0.9
O=C(Nc1nc2c(c(=O)[nH]1)CCCC2)C1CC1	0.1
Cc1[nH]nc2c1C1(CCC3(CC1)OCCO3)C(C#N)=C(N)O2	i
COc1ccccc1OCC(=O)OCC(=O)Nc1ncc(Cl)cc1Cl	i
CCn1c(CN2CCCCCC2=O)nnc1SCc1cnc(-c2ccccc2)s1	0.4
CCCCOC(=O)CNc1nnc(SCC(=O)OCC)[nH]c1=O	0.7
C1CCN(c2c3c(nc4nnnn24)CCCC3)CC1	0.3
O=C(c1cc2c(ccc3ccccc32)oc1=O)N1CCN(CCO)CC1	1.1
CCN1c2ccccc2-c2nc3ccccc3n2C1c1ccccn1 (configuration not stated)	0.7
Cc1ccccc1C(=O)NC1CCN(C(=O)N(c2ccccc2)c2ccccc2)CC1	0.3
COC(=O)c1ccccc1-n1c(C)nc2ccccc2c1=O	i

Looked up by structure from above, seven records:
SMILES	H5N1 antiviral
CS(=O)(=O)c1cnc(-c2ccccc2)nc1Oc1ccc(F)cc1	1.0
CC(C)C1CC(O)(C2(O)CCCCC2)ON1 (configuration not stated)	i
CCN(CC)CCCNC(=O)c1nn(-c2ccc(OC)cc2OC)c(=O)c2ccccc12	i
N=c1n(CCN2CCOCC2)c2ccccc2n1Cc1ccccc1Br	i
CCn1c(CN2CCCCCC2=O)nnc1SCc1cnc(-c2ccccc2)s1	0.4
CC1(C)Cc2c(sc3nc4n(c(=O)c23)CCC4)CO1	1.0
COc1cccc(OCCOCCNCCO)c1	i

Further records
SMILES	H5N1 antiviral
COCCSc1ccccc1C(=O)N1CCN(Cc2ccc3c(c2)OCO3)CC1	0.5
CC(Cl)C(=O)NNc1cccc(Cl)n1 (configuration not stated)	i
CC(C)(C)C(=O)NC1CCN(C(=O)N2CCCC2)CC1	i
CCOc1ccc2[nH]c(C)c(CN3CCN(C)CC3)c(=O)c2c1	0.6
COc1ccc(C2C(C(=O)c3sc(C)nc3C)=C(O)C(=O)N2CCCn2ccnc2)cc1OC (configuration not stated)	i
CCOCCn1c(-c2ccc(OC)cc2)nc2ccccc21	i
O=C(COc1ccccc1Cl)NC(=S)Nc1cccc(NC(=O)c2ccccc2Cl)c1	i
O=C(CSc1cccc2cccnc12)NCc1ccco1	4.2
COC(=O)c1cc(COc2ccc3c(c2)oc(=O)c2ccccc23)c(C)o1	2.3
Cn1c(C(=O)OCC(=O)NCCc2ccccc2)cc2sccc21	0.3
Nc1ncnc2nc(Sc3ccc(Cl)cc3)[nH]c12	0.5
COc1ccc(C(=O)N(CCCO)Cc2cc3c(C)ccc(C)c3[nH]c2=O)cc1OC	i
COc1ccc(OC)c(CCNC(=O)C2CCN(c3nnc(-n4cccc4)s3)CC2)c1	0.3
Cc1occc1C(=O)NCc1cccc(CNC(=O)c2ccoc2C)c1	i
COc1ccccc1-n1cnnc1SCC(=O)N1CC(=O)Nc2ccccc21	2.6
Cc1cc2ccccc2n1CCNC(=O)c1ccc(S(=O)(=O)N2CCCCC2)cc1	0.7
O=c1c2ccccc2nc(-c2cccc(Cl)c2)n1O	0.2
CCOC(=O)C1CCN(C(=O)/C=C/c2ccc(OC)cc2)CC1	0.0
COc1ccc(/C=C2/C(=O)N(CC3CCCO3)C(=S)N2C)c(OC)c1 (configuration not stated)	2.2
CCOC(=O)CSc1nc(N)c(C#N)c(-c2cccs2)c1C#N	i

Rewritten with each value named: four of the compounds above
SMILES: CCOCCn1c(-c2ccc(OC)cc2)nc2ccccc21
  H5N1 antiviral = i

SMILES: COc1ccc(OC)c(CCNC(=O)C2CCN(c3nnc(-n4cccc4)s3)CC2)c1
  H5N1 antiviral = 0.3

SMILES: Nc1ncnc2nc(Sc3ccc(Cl)cc3)[nH]c12
  H5N1 antiviral = 0.5

SMILES: CC(Cl)C(=O)NNc1cccc(Cl)n1 (configuration not stated)
  H5N1 antiviral = i

Next section.
SMILES	H5N1 antiviral
CCOC(=O)C(Cc1cc(C(C)=O)ccc1OCC)C(=O)OCC	2.4
CCc1nnc(NC(=O)c2sc3nc4cc(C)ccc4cc3c2N)s1	0.1
CCNc1nc(C)cc(COC)c1C#N	i
CCC1(C)Cc2c(sc3c2c(=O)n(C)c2nnc(SCc4ccc5c(c4)OCO5)n32)CO1 (configuration not stated)	1.5
Nc1c(-c2ccc(F)cc2)cnn1C1CCS(=O)(=O)C1 (configuration not stated)	i
CCC(c1nnnn1C(C)(C)CC)N(CCCN1CCOCC1)Cc1cc2cccc(C)c2[nH]c1=O (configuration not stated)	0.9
COc1ccc(NC(=O)C2CCCN(S(=O)(=O)c3cccnc3)C2)c(OC)c1 (configuration not stated)	2.3
O=C(O)c1cc(-c2ccco2)[nH]n1	i
Cc1ccc(C(=O)N/C(=C\c2ccco2)C(=O)NCC2CCCO2)cc1C (configuration not stated)	i
CS(=O)(=O)N(CC(=O)N1CCN(c2ccccc2)CC1)Cc1ccc(Cl)cc1	1.7
CCOC(=O)c1sc(NC(=O)CSc2nnc(Cc3ccccc3)o2)c(C#N)c1C	1.4
COc1ccc(N2C(=O)CC(=O)NC2=O)cc1	0.4
Cc1ccc2cc(CN(Cc3ccco3)C(=O)C3CCCCC3)c(=O)[nH]c2c1C	0.1
COC(=O)Oc1ccc(/C=N/NC(=O)CN(c2ccccc2Cl)S(C)(=O)=O)cc1OC	1.6
O=c1c(-c2nnc(SCc3ccc(Cl)c(Cl)c3)o2)cccn1Cc1ccccc1	i
CCN1C(=O)CC(N2CCC(Nc3ccc(F)cc3)CC2)C1=O (configuration not stated)	2.6
OC(CN1CCN(c2cccc(C(F)(F)F)c2)CC1)c1c[nH]c2ccccc12 (configuration not stated)	i
COc1ccccc1-n1c(CNc2c(C)cccc2C)nnc1SCC(=O)N1CCOCC1	0.1
COc1ccccc1-c1cc(C(F)(F)F)nc(N2CCCC2)n1	5.8
COc1cc2[nH]c(=O)n(CCCCCC(=O)NCCCN3CCCC3=O)c(=O)c2cc1OC	i
COc1cccc(-c2noc(C(C)n3nc(C)c([N+](=O)[O-])c3C)n2)c1 (configuration not stated)	i
Cc1ccc(OC(=O)c2cccc(C(=O)Oc3ccc(C)cc3)n2)cc1	i
CC(Sc1nc(-c2ccccc2)nc2c1COC(C)(C)C2)C(=O)N1CCOCC1 (configuration not stated)	0.8
CCOC(=O)CSc1nc2ccccc2n2cnnc12	0.9
O=C(COc1ccccc1)N1CCN(S(=O)(=O)c2cccs2)CC1	i
O=C(C1CC1c1ccccc1)N1CCOCC1 (configuration not stated)	i
COc1ccccc1CNC(=O)c1ccc(NS(=O)(=O)c2c(C)noc2C)cc1	i
CCOc1ccc(CC(=O)OCN2C(=O)c3ccccc3C2=O)cc1	i
CCC(C)NCc1ccc(C(=O)OC)o1 (configuration not stated)	1.5
CCSc1cnc(-c2ccccc2)n1CC	i
O=S(=O)(c1cccc(-c2cn3cccnc3n2)c1)N1CCOCC1	3.2
O=[N+]([O-])c1ccc(NCCCN2CCOCC2)c(Cl)c1	1.4
Cc1cc(C(=O)NCCCN2CCCC2=O)cs1	i

Not all compounds are listed. The share of hits here may be higher or lower than overall.
